miR-21 reporter = miR-21 reporter, rising signal; HeLa miR-21 FLuc reporter, luciferase, 48 h; Potency, µM (series often up to 38.3 µM), for inactives: at the top dose reporter change, positive = more light; AID 2288; 340,000 tested, under 10 active; active = well fitted rising curve with a large enough effect; inconclusive = small, poorly fitted or top-dose-only effect; inactive = no such curve, though single readings can be large or run the other way;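 note: % of control where 0% means no effect; miR-21 action dims this reporter so a rising signal means less miR-21 action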
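Using DMEM plus 10% FBS, HeLa miR-21-FLuc cells are incubated with test compounds (final up to about 40uM) for 48 hours; firefly luciferase signal is then imaged following reagent-mediated lysis.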
Rango complex inh = inhibitors of Rango-importin beta complex formation. Rango CFP/YFP FRET sensor + importin beta, 45 min. Potency, µM (highest dose often 92.2 µM), for inactives: at the top dose inhibition of complex formation. 340,000 tested, 0.031% active; active = rising FRET ratio curve, often small or poorly fitted; inconclusive = mostly compound fluorescence or quenching in the first reads; inactive = flat curves in all reads;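 note: potency is the fitted concentration of half-maximal effect; 0% = DMSO wells and 100% = buffer wells lacking importin beta; nearly all actives have a fitted effect of over 15% in size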
Target sequence (Q14974 whole entry, looked up): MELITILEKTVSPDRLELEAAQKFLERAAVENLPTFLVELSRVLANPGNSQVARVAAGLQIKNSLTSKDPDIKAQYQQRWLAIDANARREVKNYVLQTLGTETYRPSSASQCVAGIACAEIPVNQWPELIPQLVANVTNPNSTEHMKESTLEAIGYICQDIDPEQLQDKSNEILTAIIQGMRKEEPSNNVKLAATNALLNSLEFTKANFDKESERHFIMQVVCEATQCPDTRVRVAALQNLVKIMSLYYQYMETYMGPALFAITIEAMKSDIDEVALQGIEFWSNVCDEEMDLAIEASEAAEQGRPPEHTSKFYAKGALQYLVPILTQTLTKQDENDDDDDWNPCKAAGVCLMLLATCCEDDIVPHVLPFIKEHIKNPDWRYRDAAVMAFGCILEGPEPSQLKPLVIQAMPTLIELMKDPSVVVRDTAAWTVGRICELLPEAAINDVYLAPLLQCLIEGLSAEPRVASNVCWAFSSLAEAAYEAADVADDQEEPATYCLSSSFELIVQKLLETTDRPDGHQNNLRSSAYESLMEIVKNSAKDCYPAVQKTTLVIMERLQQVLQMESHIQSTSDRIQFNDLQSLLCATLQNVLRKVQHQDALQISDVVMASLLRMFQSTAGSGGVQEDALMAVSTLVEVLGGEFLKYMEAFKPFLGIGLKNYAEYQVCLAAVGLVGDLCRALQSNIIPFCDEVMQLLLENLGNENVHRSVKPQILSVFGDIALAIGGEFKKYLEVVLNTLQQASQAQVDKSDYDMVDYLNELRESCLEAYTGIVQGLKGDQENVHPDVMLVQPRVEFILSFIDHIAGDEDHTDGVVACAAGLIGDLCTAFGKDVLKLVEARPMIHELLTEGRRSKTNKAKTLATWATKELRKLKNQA
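FRET biosensor Rango (snurportin 1 IBB between N-terminal EYFP and C-terminal Cerulean), 50 nM in PBS/1 mM DTT/0.02% Tween-20/0.1% BSA, preincubated 5 min RT with compound; 0.125 microM importin beta added, 45 min RT, CFP/YFP FRET ratio read.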
Rango release inh = inhibition of RanGTP-driven Rango-importin beta dissociation; Biochemical FRET Rango-importin beta, RanGTP-induced dissociation; O95149+P62826; Potency, µM (top dose mostly 46.1 µM), for inactives: at the highest dose activity change, negative = inhibition; 340,000 tested, 0.071% active; active means falling FRET ratio curve, often poorly fitted, with flat reads before Ran was added; inconclusive means other falling curves, or compound fluorescence or quenching; inactive means flat or rising ratio curve;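 note: potency is the fitted concentration of half-maximal effect; % of control where 0% means no effect; nearly all actives have a fitted effect of over 45% in size; -100% = wells without RanGTP and RCC1; the record marks most hits as doubtful in a second field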
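Recombinant Rango FRET biosensor (EYFP–snurportin 1 IBB–cerulean CFP10) at 0.1 uM premixed with 0.25 uM importin beta in PBS, 1 mM DTT, 0.02% Tween-20, 0.1% BSA. Compound added 5 min; RanGTP-RCC1 (0.6 uM Ran, 2 mM GTP, 0.2 uM RCC1) then triggers release, read at 45 min.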
GLA inh pH 4.5 = inhibitors of human alpha-galactosidase A at pH 4.5; P06280; purified enzyme, 4-MU-alpha-Gal fluorescence, pH 4.5; activity change, negative = inhibition, % at 105 µM; 230,000 tested, under 10 active; AID 1467; inconclusive = small, poorly fitted or top-dose-only inhibition, or a rising curve; inactive = flat fitted curve, though single readings scatter; no compound was filed as active;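 note: 0% = full activity with enzyme and -100% = basal without enzyme; dose as in the result columns while the protocol names 77 µM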
Starred values were filed as active, the others as inactive; & = joins results of further samples. An excerpt; the hit share may differ from the screen's.

CC(C(=O)Nc1ccc2c(c1)OCCO2)N1CCN(C(=O)c2ccco2)CC1 (centres undefined) was read as miR-21 reporter -0.6%, Rango complex inh -0.2%, Rango release inh 21.2% and GLA inh pH 4.5 4.4.
Screening Cc1cccc(CCNC(=O)C2CCCN(c3cnccn3)C2)c1 (centres undefined) returned miR-21 reporter -3.3%, Rango complex inh 3.8% and Rango release inh -7.1%.
For Cc1cc(C)c2nc(NNC(=O)c3ccc(S(=O)(=O)N4CCc5ccccc5C4)cc3)sc2c1 the results were miR-21 reporter 6.7%, Rango complex inh 1.2%, Rango release inh -0.8% and GLA inh pH 4.5 6.4.
For CCOC(=O)c1cnc(SC)nc1N1CCCC1 the results were miR-21 reporter -3.1%, Rango complex inh 0.8%, Rango release inh -12.7% and GLA inh pH 4.5 -2.2.
`COc1ccccc1N1CCN(C(=O)Nc2ccc([N+](=O)[O-])cc2)CC1` gave miR-21 reporter -10.5%, Rango complex inh -0.2%, Rango release inh 8.8% and GLA inh pH 4.5 15.8.
Screening O=C(NC(C(=O)N/N=C/c1cccc2ccccc12)c1n[nH]c(=O)c2ccccc12)c1ccccc1 (centres undefined) returned miR-21 reporter -42.1%, Rango complex inh -1.6%, Rango release inh -3.2% and GLA inh pH 4.5 8.1.
COc1cccc(N2C(C(C)=O)=NN(c3ccccc3)C2c2ccc(N3CCOCC3)cc2)c1 (centres undefined) was read as miR-21 reporter -64.7%, Rango complex inh inconclusive, Rango release inh inconclusive and GLA inh pH 4.5 -0.7.
`O=C(Nc1cccnc1)c1ccc2c(c1)OCO2` gave miR-21 reporter -20.0%, Rango complex inh -1.6%, Rango release inh 17.3% and GLA inh pH 4.5 -4.5.
For CCC1(c2ccc(F)cc2)NC(=O)N(CC(=O)N2CCN(C(=O)c3ccco3)CC2)C1=O (centres undefined) the results were Rango complex inh -0.2% and Rango release inh 1.5%.
Screening O=C(OCc1nc2scc(-c3ccccc3)c2c(=O)[nH]1)c1cc([N+](=O)[O-])ccc1Cl returned miR-21 reporter -1.5%, Rango complex inh -0.7%, Rango release inh 5.2% and GLA inh pH 4.5 -4.2.
COC(=O)c1ccc(NC(=S)NC2CCCCC2C)cc1 (centres undefined) was read as miR-21 reporter 3.4%, Rango complex inh -2.8%, Rango release inh -1.4% and GLA inh pH 4.5 -1.2.
Cc1ccc(C(=O)N/N=C/c2c[nH]c3ccccc23)o1 was read as miR-21 reporter -26.0%, Rango complex inh 0.1% and Rango release inh 0.1%.

3 compounds from above, ordered by molecular weight, falling:
COc1cccc(N2C(C(C)=O)=NN(c3ccccc3)C2c2ccc(N3CCOCC3)cc2)c1 (centres undefined) was read as miR-21 reporter -64.7%, Rango complex inh inconclusive, Rango release inh inconclusive and GLA inh pH 4.5 -0.7.
Screening O=C(OCc1nc2scc(-c3ccccc3)c2c(=O)[nH]1)c1cc([N+](=O)[O-])ccc1Cl returned miR-21 reporter -1.5%, Rango complex inh -0.7%, Rango release inh 5.2% and GLA inh pH 4.5 -4.2.
For CCOC(=O)c1cnc(SC)nc1N1CCCC1 the results were miR-21 reporter -3.1%, Rango complex inh 0.8%, Rango release inh -12.7% and GLA inh pH 4.5 -2.2.

More entries follow.
Screening Cc1ccccc1S(=O)(=O)Nc1nc2ccccc2nc1N1CCOCC1 returned miR-21 reporter -1.4%, Rango complex inh -0.8%, Rango release inh -1.5% and GLA inh pH 4.5 -7.0.
C=C(C)C1CC=C(C)/C(=N/NC(=O)CNc2ccc(OCC)cc2)C1 (centres undefined) was read as miR-21 reporter -9.1%, Rango complex inh 3.3%, Rango release inh -13.3% and GLA inh pH 4.5 -19.2.
For Cn1c(/C=C/c2ccc(Cl)cc2Cl)c([N+](=O)[O-])c(=O)n(C)c1=O the results were miR-21 reporter inconclusive, Rango complex inh 4.1% and Rango release inh -13.7%.
For Cn1c(=O)c(=O)n(C)c2cc(S(=O)(=O)CCC(=O)Nc3cccc(C(F)(F)F)c3)ccc21 the results were miR-21 reporter -1.6%&0.3%, Rango complex inh 0.0% and Rango release inh -2.3%.
For CN1OC[C@@H]2CN(C(=O)CCc3ccccc3)[C@H](c3cccc(-c4ccccc4)c3)C[C@@H]21 the results were Rango complex inh 0.3% and Rango release inh 11.6%.
`CCC(CC)C(=O)Nc1nnc(S(=O)(=O)N2CCCC2)s1` gave miR-21 reporter 0.5%, Rango complex inh -0.2% and Rango release inh 13.4%.
Screening COc1ccc2c(CCNC(=O)c3ccco3)c[nH]c2c1 returned miR-21 reporter -48.1%, Rango complex inh -1.6%, Rango release inh 4.7% and GLA inh pH 4.5 8.9.
Screening O=C(c1cc(-c2cccc(O)c2)on1)N1CCCC1 returned miR-21 reporter -34.3%, Rango complex inh -6.4% and Rango release inh 4.3%.
`CN(C)c1ccc([N+](=O)[O-])cc1C(=O)O` gave miR-21 reporter -10.1%, Rango complex inh -2.0%, Rango release inh 1.0% and GLA inh pH 4.5 -10.8.
Cc1ccc(NCc2nnc(SCCN3CCCCC3)n2CC2CCCO2)cc1Cl (centres undefined) was read as miR-21 reporter -9.0%, Rango complex inh 1.7%, Rango release inh -5.2% and GLA inh pH 4.5 -9.5.
Screening CC(=O)N(C)c1ccc(NC(=O)C(F)(F)F)cc1 returned miR-21 reporter -10.6%, Rango complex inh 1.0%, Rango release inh 1.1% and GLA inh pH 4.5 -6.1.
Screening Clc1ccc(COc2ccccn2)cc1Cl returned miR-21 reporter -15.8%, Rango complex inh 0.2%, Rango release inh -8.5% and GLA inh pH 4.5 -0.8.
Screening Cc1ccc(F)cc1CNC(=O)C1CCC(=O)N(C2CC2)C1 (centres undefined) returned miR-21 reporter -7.0%, Rango complex inh 5.1% and Rango release inh 16.0%.
Screening O=C(COC(=O)Cn1cnc2ccccc21)Nc1cccc(S(=O)(=O)N2CCOCC2)c1 returned miR-21 reporter 2.6%, Rango complex inh -0.2%, Rango release inh -9.6% and GLA inh pH 4.5 -6.5.
For COc1cc(C(=O)Nc2cc(S(=O)(=O)N3CCOCC3)ccc2N2CCN(C)CC2)cc(OC)c1OC the results were Rango complex inh 0.4% and Rango release inh 9.9%.
For Cc1cc(C)nc(-n2nc(C)cc2Nc2ccccc2)n1 the results were miR-21 reporter 25.0%, Rango complex inh 0.2%, Rango release inh -7.2% and GLA inh pH 4.5 -2.3.
Screening Cc1ccccc1-c1nnc(SCCOc2ccc3c(C)cc(=O)oc3c2)o1 returned miR-21 reporter -5.1%, Rango complex inh -3.4%, Rango release inh 6.5% and GLA inh pH 4.5 -3.7.
Screening O=C(O)c1sccc1Oc1ccc(NS(=O)(=O)c2ccccc2)cc1 returned miR-21 reporter -0.8%, Rango complex inh 1.8% and Rango release inh 7.1%.
Screening CCCOC(=O)c1ccc(NC(=O)C2CCCO2)cc1 (centres undefined) returned miR-21 reporter -55.3%, Rango complex inh 0.9%, Rango release inh -5.4% and GLA inh pH 4.5 -1.9.
For O=C(Nc1cccc(Cl)c1Cl)c1cc(S(=O)(=O)NCCc2ccccc2)ccc1F the results were miR-21 reporter 4.0%&-1.8%, Rango complex inh -3.2%, Rango release inh 3.6% and GLA inh pH 4.5 -0.1.
`CCOC(=O)c1ccc(-n2[nH]c(-c3ccccc3)cc2=O)cc1` gave miR-21 reporter -5.4%, Rango complex inh -1.4%, Rango release inh -2.7% and GLA inh pH 4.5 -6.8.
Screening CC(CCC(=O)O)C1CCC2C3CCC4C[C@H](O)CCC4(C)C3CC(=O)C12C (some centres undefined) returned miR-21 reporter -13.5%, Rango complex inh -0.9% and Rango release inh 0.8%.
Screening O=C(Oc1ccccc1)N1CCN(c2ccc(F)cc2)CC1 returned miR-21 reporter -11.7%, Rango complex inh 0.7%, Rango release inh 1.0% and GLA inh pH 4.5 0.4.
CCOC(=O)N1CCN(C(=O)c2c(-c3c(Cl)cccc3Cl)noc2C)CC1 was read as miR-21 reporter 0.5%, Rango complex inh 0.2% and Rango release inh 1.6%.
CC(=O)c1ccc(-c2cccs2)s1 was read as miR-21 reporter -37.0%, Rango complex inh inconclusive, Rango release inh inconclusive and GLA inh pH 4.5 inconclusive.
Cc1cc(N(C)C)ccc1[N+](=O)[O-] was read as miR-21 reporter -3.8%, Rango complex inh 0.9%, Rango release inh -12.4% and GLA inh pH 4.5 -11.0.
For COc1ccc(NC(=O)C2CCN(S(=O)(=O)c3ccc4c(c3)NC(=O)C(C)S4)CC2)cc1 (centres undefined) the results were miR-21 reporter 27.1%, Rango complex inh 0.8% and Rango release inh -1.4%.
For CC(C)CSc1nc2ccccc2[nH]1 the results were miR-21 reporter -53.3%, Rango complex inh 5.9%, Rango release inh -13.0% and GLA inh pH 4.5 1.0.
For COc1ccc(OC)c(NC(=O)COc2ccc(S(=O)(=O)NC(C)C)cc2)c1 the results were miR-21 reporter -1.0%, Rango complex inh -0.5%, Rango release inh -6.0% and GLA inh pH 4.5 0.7.
For O=C1CC(=O)N2N=C(c3ccc([N+](=O)[O-])cc3)SC2=N1 the results were miR-21 reporter -10.5%, Rango complex inh inconclusive, Rango release inh 1.4% and GLA inh pH 4.5 2.3.
S=C(NCCCc1ccccc1)Nc1ccccc1Cl was read as miR-21 reporter -8.3%, Rango complex inh -0.4%, Rango release inh -6.7% and GLA inh pH 4.5 -1.1.
Screening CCOc1ccc(-n2c(SCc3nc(-c4ccc(C)cc4)no3)nnc2-c2ccncc2)cc1 returned miR-21 reporter 7.6%, Rango complex inh -5.1%, Rango release inh -2.6% and GLA inh pH 4.5 -6.2.
For COc1ccc(CCNC(=O)CSc2nc(=O)[nH]c3c2CCC3)cc1OC the results were Rango complex inh 4.2% and Rango release inh 28.1%.
`COc1cc(C(=O)OCC(=O)NC2CCCC2)cc(OC)c1OC` gave miR-21 reporter 4.6%, Rango complex inh 3.6% and Rango release inh -28.3%.
CC(=O)Oc1c(S(=O)(=O)c2ccc(C)cc2)c(C)nn1-c1ccccc1 was read as miR-21 reporter -0.8%, Rango complex inh 1.2%, Rango release inh -16.1% and GLA inh pH 4.5 5.2.
Cc1ccc2cc(C#N)c(SCC(=O)NCC3CCCO3)nc2c1C (centres undefined) was read as miR-21 reporter -2.9% and GLA inh pH 4.5 6.3.
O=C(COC(=O)c1ccccc1O)NCc1ccc2c(c1)OCO2 was read as Rango complex inh 3.2% and Rango release inh 17.1%.
For CCOc1ccc(NS(=O)(=O)c2ccc(C(=O)NCC(c3ccco3)N3CCCC3)cc2)cc1 (centres undefined) the results were Rango complex inh -1.4% and Rango release inh -19.2%.
Cc1cc(C)c(C)c(OCC(=O)O/N=C(\N)c2ccccn2)c1 was read as miR-21 reporter -24.1%, Rango complex inh -4.0%, Rango release inh 1.4% and GLA inh pH 4.5 -2.2.
For CCOC(=O)c1c[nH]c2c(C)cc(C)cc2c1=O the results were miR-21 reporter -0.9%, Rango complex inh -0.1%, Rango release inh -3.3% and GLA inh pH 4.5 2.7.
For O=C(CCCN1C(=O)CCC1=O)Nc1ccc2c(c1)OCCO2 the results were miR-21 reporter -20.0%, Rango complex inh -0.5%, Rango release inh 0.4% and GLA inh pH 4.5 -1.8.
O=S(=O)(Nc1ccccc1)c1ccc(NS(=O)(=O)c2c(F)cccc2F)cc1 was read as miR-21 reporter -5.5%, Rango complex inh 0.2% and Rango release inh -0.9%.
O=C(c1cnc2sccn2c1=O)N(Cc1ccccc1)c1ccccn1 was read as miR-21 reporter -2.7%, Rango complex inh 2.5%, Rango release inh 3.3% and GLA inh pH 4.5 -0.5.
For Cc1nn(C)c(NC(=O)c2ccc(Cl)cc2Cl)c1Br the results were miR-21 reporter -0.3%, Rango complex inh -0.5% and Rango release inh -3.2%.
Screening COc1cc(C(=O)OCC(=O)c2cc(C)n(C)c2C)cc(NC(=O)c2ccco2)c1OC returned miR-21 reporter -6.6%, Rango complex inh -0.3%, Rango release inh 8.3% and GLA inh pH 4.5 -4.4.
Screening Cc1ccc(C2=N/C(=C/N3CCOCC3)C(=O)O2)cc1 returned miR-21 reporter -70.7%, Rango complex inh 3.6%, Rango release inh 1.5% and GLA inh pH 4.5 -5.9.
Screening Cc1cccc(OCCCn2c(=O)sc3ccccc32)c1 returned miR-21 reporter -66.3%, Rango complex inh 0.7%, Rango release inh -3.3% and GLA inh pH 4.5 -1.3.

From PubChem
